# Mtb hypoxia inh – inhibitors of hypoxia-regulated fluorescent reporter in Mycobacterium tuberculosis; hit rate 0.1% among 300,000; AID 1159583; fluorescence inhibition, % (test concentration not listed); M. tuberculosis hypoxia-regulated fluorescent reporter, fluorescence;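 active = 35 to 45% if threefold the growth effect, above 45% if 1.5-fold the growth effect; inactive = the rest, general growth blockers included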;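 note: wells of about 50 µL received 100 nL stock; 0% = vehicle wells and 100% = reference inhibitor wells; whole bacteria with a GFP reporter of the hypoxia response; strong numbers were not always called active; many hits fall short of the cut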
# Autofluor counter – counter-screen for toxin protease inhibitors: compound fluorescence; compound autofluorescence counterscreen, microsphere flow cytometry; stronger effect = higher value; fluorescence intensity (concentration not given with the values); hit rate 3.1% among 360,000; AID 624483;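 active = at least 3 SD above the mean of all compounds, about 16000 in these data; inconclusive = too few beads counted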;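 note: 100 nL of 1 mM stock went into each well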
# PrP 5UTR inh – inhibition of PrP 5' UTR reporter expression; cell-based PrP 5' UTR mRNA reporter, plate reader; inhibition, % (test concentration not listed); hit rate 0.35% among 340,000; AID 488862;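 active = every replicate at 50% or more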;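 note: 0 = median of the neutral control wells; tested in H4 reporter cells; numbers are from one replicate; inactives centre near -14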
# ugtP null kill – growth inhibition of S. aureus ugtP deletion strain; S. aureus RN4220 ugtP deletion, OD600 growth, 16 h; some inactives read as strong as hits; growth inhibition, % (no concentration beside the values); hit rate 0.54% among 330,000; AID 1259309;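 active = z-score under -3 and OD600 up to 0.15 on both plates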;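 note: plate controls were untreated wells for no effect and antibiotic for full effect; wells of about 80 µL received 100 nL stock; the first replicate is given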
# Sa RN4220 lethal – kills Staphylococcus aureus RN4220; hit rate 0.33% among 330,000; S. aureus RN4220 growth, OD600, 16 h; inhibition, % (test concentration not listed);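 active = z-score of -3 or lower and OD600 up to 0.18 on both plates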;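 note: plate controls were untreated cells for no effect and reference antibiotic for full effect; stock transfer was 100 nL into about 80 µL; one replicate is shown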
# BJeLR lethal – BJeLR cell viability loss | inhibition, % (concentration not given with the values) | AID 1554 | BJeLR (HRASV12) viability, CellTiter-Glo ATP luminescence, 48 h; reference of the scale not given here | hit rate 0.17% among 300,000;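 active = replicate mean above 50%; inconclusive = above 50% but judged a plate artefact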;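 note: 50 nL library stock added to about 25 µL; numbers are from one replicate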
# Mtb hypoxia inh growth – recorded beside Mtb hypoxia inh, whose call it bears; growth inhibition, %; measured here: M. tuberculosis growth (absorbance);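 0% = vehicle and 100% = reference antibiotic; read after six days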
# * = called active by the depositor; ? = inconclusive; / = no result given.
nr	structure	PrP 5UTR inh	Mtb hypoxia inh	ugtP null kill	Autofluor counter	Mtb hypoxia inh growth	BJeLR lethal	Sa RN4220 lethal
1	COc1cc2nc(CN(C)Cc3ccc(F)cc3)[nH]c(=O)c2cc1OC	-23	5	7	4476	5	-1	2.2
2	Cc1cc(C(=O)COC(=O)C2=COCCO2)c(C)n1-c1ccc2c(c1)OCO2	-67	1	-2	3852	7	-3	1.1
3	CC(=O)N1c2ccc(S(=O)(=O)NC(CC(=O)O)c3ccc(Br)cc3)cc2CC1C (stereo unspecified)	-44	12	3	5186	1	-1	4.0
4	COc1ccc(CCN(C)Cc2ccc(OC)c(OCc3ccccc3)c2)cc1OC	-37	0	0	10063	-2	-5	4.1
5	Cc1ccc(NC(=S)NNC(=O)c2c(Cl)c(C)nn2C)cc1	2	-7	1	9508	2	0	9.4
6	Cc1ccc(-n2nnc3c(=O)n(CC(=O)NCc4ccccc4)cnc32)cc1	-6	-5	1	6129	2	-4	-1.0
7	Cc1ccsc1/C=N/NC(=O)Cn1cnc2ccccc21	-21	/	/	10325	/	7	/
8	O=C(O)/C=C/C(=O)NC1CCCCCCCCCCC1	-26	3	-3	4431	4	-4	5.6
9	Cn1cnnc1SCCCN1C(=O)c2cccc3cccc(c23)C1=O	-7	7	1	4579	-4	-6	2.9
10	Cc1oc(-c2ccccc2F)nc1CS(=O)CC(=O)NCc1ccc2c(c1)OCO2 (stereo unspecified)	-6	-6	-1	6728	-2	5	0.0
11	COC(=O)C(Cc1ccccc1)N(C)S(=O)(=O)c1cccc(S(=O)(=O)N(C)C(Cc2ccccc2)C(=O)OC)c1 (stereo unspecified)	/	2	-4	/	8	/	3.4
12	C=CCN1C(=O)C(C)(C)N(C(C)=O)c2ccccc21	-13	4	3	2495	-3	9	4.1
13	O=C(CN1CCCC1)Nc1ccc(F)cc1	-35	-2	1	4371	-8	-2	4.4
14	Cc1cc(C)c(S(=O)(=O)c2ccc(C(C)(C)C)cc2)c(Cl)n1	-20	4	35	2806	-3	0	-0.4
15	Cc1cc(C)cc(NC(=O)CN2C(=O)C3CC=CCC3C2=O)c1 (stereo unspecified)	3	5	-2	8948	4	/	1.3
16	Cc1ccc(NC(=O)COCC(=O)Nc2ccc(F)cc2)cc1	-5	-14	-1	3778	3	3	-1.2
17	Cc1cc(N2CCOCC2)ccc1/C=C1/SC(=O)NC1=O	-62	6	-8	1995	18	7	5.0
18	O=C(O)c1cn(Cc2ccccn2)c(=O)c2ccccc12	-21	-2	1	2438	-7	-9	3.4
19	CCCC(C)C(=O)Nc1ccc(S(=O)(=O)Nc2nccs2)cc1 (stereo unspecified)	-17	8	1	3649	10	4	-1.6
20	Cc1cccc(NC(=S)N(CCN(C)C)C(C)c2ccco2)c1 (stereo unspecified)	-11	6	7	2499	0	-2	2.4
21	CNC(=S)N=CNOCc1ccc(Cl)cc1Cl	/	/	-48	/	/	/	-3.7
22	O=C1[C@H]2[C@@H](C3CC3)N3C(=O)CN(Cc4ccccn4)C(=O)[C@@]3(Cc3ccccc3)[C@H]2C(=O)N1c1ccccc1	31	/	/	3184	/	-5	/
23	O=C(NCC1CCCCC1)c1cccc(Br)c1	-14	/	0	4004	/	1	8.1
24	Cc1ccc(-c2cc(C(=O)NC3=NCCS3)c3ccccc3n2)cc1C	-42	10	-8	2490	7	4	-1.5
25	Cc1nn(-c2cccc(C(=O)O)c2)c(C)c1Oc1ccccc1O	-5	4	5	3244	10	6	1.0
26	COc1cc(/C=N\NC(=O)c2ccc(-c3ccccc3)cc2)cc(Br)c1O	-9	/	/	4688	/	-2	/
27	CC(=O)c1ccc(S(=O)(=O)NCCC(=O)OCC(=O)N(Cc2ccccc2)C(C)(C)C)cc1	-9	4	2	3397	-5	/	4.8
28	O=c1[nH][nH]c(-c2ccccc2)c1C=Nc1ccccc1Cl	-14	0	3	3557	4	-2	3.9
29	COC(=O)c1cc(OC)c(OC)cc1NC(=O)CC1CCCCC1	3	17	12	5187	5	-12	6.3
30	Cc1cccc(NS(=O)(=O)c2cccs2)c1	-4	9	2	8968	0	-4	6.1
31	N#Cc1c(-c2cccnc2)c2c([nH]c1=S)CCCC2	-24	-2	3	2414	11	1	18
32	C=CCN1C(=O)NC(=O)C(CCc2ccncc2)(CCc2ccncc2)C1=O	-7	1	2	4631	3	1	2.0
33	CS(=O)(=O)c1ccc(-n2c(=O)n(Cc3ccccc3)c(=O)c3[nH]cnc32)cc1	-14	1	0	3601	8	0	2.2
34	Cc1ccc(NC(=O)CSc2nc(=O)n(CCN3CCOCC3)c3c2CCCC3)cc1	-3	8	12	5286	1	1	3.6
35	Cc1cccc(NC(=S)Nc2cccc3ccccc23)c1	-17	8	10	5515	1	-10	-3.1
36	CCc1nnc(NC(=O)c2cc(S(=O)(=O)N(CC)CC)ccc2Cl)s1	-12	1	5	7826	-1	-1	3.7
37	O=C(O)CC1(CC(=O)Nc2ccc(Oc3cccc(C(F)(F)F)c3)nc2)CCCC1	/	7	2	/	8	11	6.4
38	COc1ccc(NC(=O)c2ccco2)cc1NC(=O)c1c(OC)cccc1OC	-3	19	4	5970	13	-1	3.9
39	CCOc1ccc(-c2cccc(NS(=O)(=O)c3ccc([N+](=O)[O-])cc3)c2)nn1	-7	-1	-2	5661	11	13	5.0
40	CS(=O)(=O)N(CC(=O)NCc1cccnc1)C1CCCCC1	-11	-8	1	4412	10	-6	-0.7
41	CC(=O)c1c(C)[nH]c(C(=O)COC(=O)c2nccnc2N)c1C	-15	11	6	?	4	/	7.4
42	Cc1ccc(CN2CCNC(=O)C2CC(=O)NCc2cc(C)n(C)n2)cc1 (stereo unspecified)	-6	2	4	5639	8	-8	-1.3
43	Cc1cccc(/C=N/NC(=O)CC(=O)NCCc2ccccc2)c1	-24	/	/	5749	/	-11	/
44	Cn1c(SCc2ccccc2)nccc1=O	7	-2	-2	4057	23	/	3.6
45	O=C1c2cccnc2C(=O)N1c1ccccc1-c1ccccc1	-16	3	-2	?	1	3	2.2
46	COc1ccc(OCC(=O)N/N=C2/C=C(C)CC2)cc1	-23	/	/	2622	/	-4	/
47	O=[N+]([O-])c1ccccc1NN=Cc1cccc(O)c1O	/	9	-3	/	1	/	6.0
48	CCc1c(C)nc2ncnn2c1N1CCCC(C(=O)NCc2ccco2)C1 (stereo unspecified)	/	17	9	6926	17	-2	5.4
49	CCn1cc(C(=O)NCC(OC)OC)c(=O)c2cc(S(=O)(=O)N(C)C3CCCCC3)ccc21	-2	5	3	5941	1	10	3.8
50	COc1ccc(/C=N/NC(=O)c2ccccc2Cl)cc1CSc1nc2ccccc2s1	-29	/	/	4323	/	24	/
51	COc1cc([N+](=O)[O-])cc(C=NNC(=O)c2cccnc2)c1O	/	7	4	/	-3	/	5.3
52	Cc1ccc(OCCC(=O)OCc2csc(CC(=O)Nc3ccccc3C)n2)cc1	-22	3	6	4766	12	-5	0.4
53	Cc1cc([N+](=O)[O-])ccc1NC(=S)NC1CCCC1	-29	-9	-2	6379	-4	-4	-0.4
54	Nc1ccccc1NC1=CC(=O)CC(c2ccco2)C1 (stereo unspecified)	-12	16	-6	2858	13	9	-9.6
55	Cc1cc(C)cc(N(CCC(=O)Nc2nnc(C3CC3)s2)S(=O)(=O)c2ccc(Cl)cc2)c1	-4	5	5	2129	1	-14	6.9
56	CCOC(=O)C1C(c2cc(OC)c(OC)c(OC)c2)NC(=S)NC1(O)C(F)(F)F (stereo unspecified)	-13	6	2	4880	10	-1	2.0
57	CC(C)(C)C(=O)O/N=C1\CCS(=O)(=O)c2sccc21	-16	/	/	4447	/	3	/
58	Cc1[nH]nc(-c2ccc(OCc3cnn(-c4ccccc4)c3)cc2O)c1Oc1ccc(F)cc1	7	/	-10	2778	/	-5	-12
59	CC[C@]1(C(=O)OC)[C@H]2C(=O)N(Cc3ccccc3)C(=O)[C@H]2[C@H]2CN=C(SCC3CC3)N21	-6	-5	-5	2921	1	/	2.0
60	CSc1nccc(-c2nn(-c3ccc(C)cc3)ccc2=O)n1	-5	/	1	4244	/	12	3.7

# Among those listed so far, 3 contain a tert-butyl group:
nr	structure	PrP 5UTR inh	Mtb hypoxia inh	ugtP null kill	Autofluor counter	Mtb hypoxia inh growth	BJeLR lethal	Sa RN4220 lethal
14	Cc1cc(C)c(S(=O)(=O)c2ccc(C(C)(C)C)cc2)c(Cl)n1	-20	4	35	2806	-3	0	-0.4
27	CC(=O)c1ccc(S(=O)(=O)NCCC(=O)OCC(=O)N(Cc2ccccc2)C(C)(C)C)cc1	-9	4	2	3397	-5	/	4.8
57	CC(C)(C)C(=O)O/N=C1\CCS(=O)(=O)c2sccc21	-16	/	/	4447	/	3	/

# The list continues:
nr	structure	PrP 5UTR inh	Mtb hypoxia inh	ugtP null kill	Autofluor counter	Mtb hypoxia inh growth	BJeLR lethal	Sa RN4220 lethal
61	CC(=O)c1ccc(OCCCC(=O)NCCc2ccccc2)cc1	-14	15	14	5136	4	-2	2.6
62	CCOc1c2ccc(C(=O)N[C@H](C)C3CCCCC3)cc2nn1CC	-15	/	/	3227	/	-2	/
63	Nc1c(Cl)cc(Cl)cc1C(=O)OCC(=O)N1CCOCC1	-33	3	20	3307	-2	1	7.5
64	CC(=O)N1CCN(C(=O)c2cc(-c3ccc(C)o3)nc3ccccc23)CC1	-17	10	5	7928	5	9	17
65	Cc1ccc(Cn2cc(CCC(=O)O)c3ccccc32)cc1	-32	9	-1	3477	6	-5	7.0
66	NC(=O)CC1C(=O)N(c2ccc(Cl)cc2)C(=S)N1NC(=O)c1cccc(F)c1 (stereo unspecified)	/	3	7	3480	4	0	3.2
67	Cc1ccc(NS(=O)(=O)c2ccccc2[N+](=O)[O-])cc1S(=O)(=O)N1CCCCC1	-5	-2	0	4322	9	/	13
68	COC(=O)c1ccc(N2C(=O)CC(Sc3n[nH]c(C)n3)C2=O)cc1 (stereo unspecified)	2	/	2	2010	/	-3	1.0
69	CCc1ccc(C)c(OC(=O)c2cncc(Br)c2)c1	-3	5	8	3751	-2	-5	1.8
70	CCN(CC)CCn1c2c(c(SCC(=O)Nc3ccc(F)c(F)c3)nc1=O)CCC2	14	-1	1	?	-1	8	-0.5
71	CC1CC(Nc2ccccc2N)=CC(=O)O1 (stereo unspecified)	-15	6	-7	2185	1	-6	-15
72	CCOC(=O)c1cccc(NC(=O)c2ccc(NC(=O)C3CCCO3)cc2)c1 (stereo unspecified)	-26	2	5	3845	3	-5	-0.5
73	CCOc1ccccc1C1C(C#N)=C(N)Oc2cc(C)n(Cc3ccccn3)c(=O)c21 (stereo unspecified)	10	1	11	?	6	3	11
74	N#Cc1cccc(NS(=O)(=O)c2ccccc2Cl)c1	-1	5	0	3984	4	/	5.9
75	O=C(NCc1ccco1)C1CC(O)CN1C(=O)Nc1ccccc1 (stereo unspecified)	-19	7	4	6214	-5	3	2.8
76	Cc1ccc(-n2c(SCC(=O)NCC3CCCO3)nc3ccccc3c2=O)cc1 (stereo unspecified)	-9	20	1	3678	14	/	1.1
77	O=C(NCc1ccc(F)cc1)c1cc(-c2ccncc2)nc2ccccc12	-11	18	1	3291	2	6	-5.6
78	O=C(NCCN1CCOCC1)/C(=C/c1ccccc1)NC(=O)c1ccccc1	-15	4	11	5557	9	3	5.1
79	O=C(O)CCn1c(SCc2ccccc2)nc2ccccc21	-31	12	7	10178	6	-17	3.9
80	O=c1[nH]c2cc(Cl)cc(Cl)c2[nH]c1=O	-12	-7	-9	?	0	0	1.0
81	O=C(C(=O)N1CCN(c2cccc(Cl)c2)CC1)N1CCCCC1	-26	4	-2	2634	5	-3	4.8
82	CN(CCc1ccccc1)C1CCCN(S(=O)(=O)N(C)C)C1 (stereo unspecified)	-11	2	1	/	-5	3	1.8
83	O=C(O)C1CSC2(c3ccc(Br)cc3)CCC(=O)N12 (stereo unspecified)	0	7	0	4718	9	5	2.5
84	Cn1cc(C=NNC(N)=S)c2ccccc21	/	/	2	/	/	/	2.7
85	C=CCc1ccccc1OCCOc1ccc([N+](=O)[O-])cc1C=NNC(N)=O	/	6	1	/	2	/	0.9
86	CCCCc1nnc(NC(=O)Cc2ccc(OC)c(S(=O)(=O)N3CCOCC3)c2)s1	-24	3	5	5760	7	-14	2.0

# Bioassay records (PubChem BioAssay)

# The order is random; overall some 4.1% were active at least once.
